Screening results from PubChem BioAssay.
HIV Env fusion: HIV envelope-mediated fusion inhibition | HeLa-JRFL Env/CEM21 cell fusion, luciferase | inhibition, % at 12.3 µM | 1.1% of 360,000 active;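 active means mean replicate inhibition score of at least 50 and every replicate individually at or above 50; inconclusive means only one of the two criteria met; inactive means mean below 50 and not all replicates reaching 50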;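 further: 0% = plate neutral controls and 100% = maraviroc near 300 nM; one replicate is shown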
UUG fidelity: modulators of start codon recognition fidelity in yeast | S. cerevisiae UUG-firefly luciferase reporter, luminescence/redox ratio | 0.13% of 350,000 active | activity score, % at 18.7 µM;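 active means replicate mean at a twofold rise or more, about +100% in these data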;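 further: firefly luciferase made from a UUG start codon reports start codon fidelity; reporter light over untreated wells divided by growth signal over untreated wells; some hits fall short of that in this replicate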
An asterisk follows results filed as active; ? = inconclusive; [ ] = another dose, or the depositor's remark.

1. C[C@H](O)C#Cc1cnc2c(c1)C(=O)N([C@H](C)CO)C[C@@H](C)[C@@H](CN(C)C(=O)CN1CCOCC1)O2
2. C[C@@H]1CCCCO[C@@H](CN(C)Cc2ccccc2)[C@H](C)CN([C@@H](C)CO)C(=O)c2cc(NS(=O)(=O)c3ccc(F)cc3)ccc2O1
3. COc1ccc(S(=O)(=O)N(C)C[C@H]2OCCCC[C@H](C)Oc3ccc(NC(=O)c4ccccc4)cc3C(=O)N([C@H](C)CO)C[C@H]2C)cc1
4. C[C@H](O)C#Cc1cnc2c(c1)C(=O)N([C@H](C)CO)C[C@H](C)[C@@H](CN(C)C(=O)Nc1ccc(F)cc1)O2
5. CO[C@@H]1CN(C)C(=O)c2cc(NS(C)(=O)=O)ccc2OC[C@H](C)N(C(=O)CC2CC2)C[C@H]1C
6. CCNC(=O)C[C@H]1CC[C@H]2[C@H](COc3ccc(NC(=O)c4cccs4)cc3C(=O)N2C)O1
7. C[C@@H]1CN([C@H](C)CO)C(=O)CCCn2cc(nn2)CO[C@H]1CN(C)S(=O)(=O)c1cn(C)cn1
8. C[C@@H]1CN([C@@H](C)CO)C(=O)c2cccc(NC(=O)Nc3ccccc3)c2O[C@@H]1CN(C)Cc1ccccc1

Screen / compound no.	1	2	3	4	5	6	7	8
UUG fidelity	-3	10	-13	0	-2	-12	3	2
HIV Env fusion	2[16.7 µM]	-27[16.7 µM]	-10[16.7 µM]	-4[16.7 µM]	19[16.7 µM]	-5[16.7 µM]	-103	-45[16.7 µM]

9. C[C@H]1CN([C@@H](C)CO)C(=O)Cc2cc(NC(=O)Cc3ccccc3)ccc2O[C@H]1CN(C)Cc1ccccc1
10. COc1ccc(NC(=O)Nc2ccc3c(c2)C(=O)N([C@@H](C)CO)C[C@@H](C)[C@H](CN(C)S(=O)(=O)c2ccc(Cl)cc2)OCCCC[C@@H](C)O3)cc1
11. C[C@H]1CN([C@@H](C)CO)C(=O)c2cc(C#CCN(C)C)cnc2O[C@@H]1CN(C)C(=O)Nc1cc(F)ccc1F
12. C[C@@H]1CCCCO[C@H](CN(C)C(=O)NC2CCCCC2)[C@@H](C)CN([C@@H](C)CO)C(=O)c2cc(NC(=O)c3ccccc3)ccc2O1
13. C[C@H]1CN([C@@H](C)CO)C(=O)Cc2cc(NC(=O)CCC(F)(F)F)ccc2O[C@H]1CN(C)Cc1ccc(Oc2ccccc2)cc1
14. C[C@@H]1CN([C@@H](C)CO)S(=O)(=O)c2ccc(C#CC(C)(C)O)cc2O[C@H]1CN(C)Cc1ccc(-c2ccccc2)cc1
15. C[C@H](CO)N1C[C@H](C)[C@H](CN(C)Cc2ccc(C(F)(F)F)cc2)Oc2ccc(NS(C)(=O)=O)cc2C1=O
16. C[C@H]1CN([C@@H](C)CO)S(=O)(=O)c2ccc(-c3cncnc3)cc2O[C@@H]1CN(C)C(=O)Cc1ccncc1

Screen / compound no.	9	10	11	12	13	14	15	16
UUG fidelity	-17	-6	16	19	5	6	-3	6
HIV Env fusion	20[16.7 µM]	21[16.7 µM]	-8[16.7 µM]	31[16.7 µM]	-124[16.7 µM]	?	17[16.7 µM]	-6[16.7 µM]

17. Cn1cnc(CCNC(=O)C[C@@H]2CC[C@@H]3[C@H](COC[C@@H](O)CN3C(=O)Nc3ccccc3)O2)c1
18. N#C[C@H]1[C@@H](c2ccc(C#CC3CC3)cc2)[C@@H](CO)N1C(=O)c1cccc(F)c1
19. COc1ccc(S(=O)(=O)Nc2ccc3c(c2)C(=O)N([C@H](C)CO)C[C@H](C)[C@@H](CN(C)C(=O)Nc2ccc4c(c2)OCO4)OCCCC[C@@H](C)O3)cc1
20. Cc1ccc(-c2cnc3c(c2)C(=O)N([C@H](C)CO)C[C@H](C)[C@H](CN(C)C(=O)Cc2cccnc2)O3)cc1
21. C[C@@H]1CN([C@H](C)CO)C(=O)c2cccc(NS(=O)(=O)c3ccccc3)c2O[C@H]1CN(C)C(=O)Nc1ccc2c(c1)OCO2
22. C[C@H](CO)N1C[C@H](C)[C@@H](CN(C)C(=O)Nc2ccc(F)cc2)Oc2ccc(NC(=O)Nc3cccc4ccccc34)cc2C1=O
23. COCC(=O)N(C)C[C@H]1Oc2ncc(C#CCC3CCCC3)cc2C(=O)N([C@@H](C)CO)C[C@@H]1C
24. COc1ccc(S(=O)(=O)N(C)C[C@@H]2Oc3ccc(NS(=O)(=O)c4ccc(C)cc4)cc3CC(=O)N([C@@H](C)CO)C[C@H]2C)cc1

Screen / compound no.	17	18	19	20	21	22	23	24
UUG fidelity	-2	-3	0	0	13	-9	31	36
HIV Env fusion	16[16.7 µM]	-9[16.7 µM]	-16[16.7 µM]	-26[16.7 µM]	5[16.7 µM]	3[16.7 µM]	-47[16.7 µM]	-5[16.7 µM]

25. C[C@@H]1CN([C@H](C)CO)C(=O)c2cc(NS(C)(=O)=O)ccc2O[C@@H](C)CCCCO[C@H]1CN(C)Cc1ccc(C(=O)O)cc1
26. C/C=C/c1cnc2c(c1)C(=O)N([C@@H](C)CO)C[C@H](C)[C@@H](CN(C)C(=O)Nc1ccccc1F)O2
27. Cc1noc(C)c1NC(=O)N(C)C[C@@H]1Oc2c(cccc2N(C)C)C(=O)N([C@H](C)CO)C[C@H]1C
28. COc1ccc(NC(=O)Nc2ccc3c(c2)CC(=O)N([C@@H](C)CO)C[C@@H](C)[C@H](CN(C)Cc2ccccc2)O3)cc1
29. C[C@@H]1CN([C@@H](C)CO)C(=O)c2cc(NC(=O)CCC(F)(F)F)ccc2O[C@@H](C)CCCCO[C@H]1CN(C)S(=O)(=O)c1ccccc1
30. COc1ccc(S(=O)(=O)N(C)C[C@H]2Oc3cc(C#CC4CC4)ccc3S(=O)(=O)N([C@@H](C)CO)C[C@H]2C)cc1
31. COc1ccc(CN(C)C[C@H]2Oc3ccc(NC(=O)CCN4CCOCC4)cc3C(=O)N([C@@H](C)CO)C[C@H]2C)cc1
32. C[C@@H]1CN([C@@H](C)CO)C(=O)Cc2cc(NS(C)(=O)=O)ccc2O[C@H]1CN(C)S(=O)(=O)c1cn(C)cn1

Screen / compound no.	25	26	27	28	29	30	31	32
UUG fidelity	-4	8	-23	22	11	-3	-4	-10
HIV Env fusion	10[16.7 µM]	-13[16.7 µM]	0[16.7 µM]	8[16.7 µM]	-9[16.7 µM]	14[16.7 µM]	-12[16.7 µM]	8[16.7 µM]

33. C[C@@H]1CN([C@@H](C)CO)C(=O)c2cc(NC(=O)c3ccccc3)ccc2O[C@@H](C)CCCCO[C@@H]1CN(C)Cc1ccccc1
34. CC(C)NC(=O)N(C)C[C@@H]1Oc2cc(-c3ccncc3)ccc2S(=O)(=O)N([C@@H](C)CO)C[C@@H]1C
35. CC(=O)N(C)C[C@@H]1Oc2cc(C#CC3CCCCC3)ccc2S(=O)(=O)N([C@H](C)CO)C[C@@H]1C
36. COc1ccc(NC(=O)N(C)C[C@@H]2OCCCC[C@@H](C)Oc3ccc(NC(=O)Nc4ccc(C(F)(F)F)cc4)cc3C(=O)N([C@H](C)CO)C[C@@H]2C)cc1
37. C[C@@H]1CN([C@H](C)CO)C(=O)c2cc(NS(=O)(=O)c3cn(C)cn3)ccc2O[C@@H](C)CCCCO[C@@H]1CN(C)Cc1ccc2c(c1)OCO2
38. C[C@@H]1CN([C@@H](C)CO)C(=O)c2cccc(NC(=O)c3ccc(-c4nccs4)cc3)c2O[C@@H]1CN(C)CC1CC1
39. CNC[C@H]1Oc2cc(-c3cncnc3)ccc2S(=O)(=O)N([C@H](C)CO)C[C@@H]1C
40. C[C@@H]1CN([C@H](C)CO)S(=O)(=O)c2ccc(C#C[C@@H](C)O)cc2O[C@@H]1CN(C)C(=O)CN(C)C

Screen / compound no.	33	34	35	36	37	38	39	40
UUG fidelity	12	-19	26	-9	21	5	5	1
HIV Env fusion	0[16.7 µM]	7[16.7 µM]	41[16.7 µM]	15[16.7 µM]	-4[16.7 µM]	10[16.7 µM]	-4[16.7 µM]	-6[16.7 µM]

41. C[C@@H]1CN([C@@H](C)CO)C(=O)c2cc(NC(=O)CCC(F)(F)F)ccc2O[C@@H]1CN(C)CC1CC1
42. CC(C)C#Cc1cnc2c(c1)C(=O)N([C@@H](C)CO)C[C@H](C)[C@@H](CN(C)C(=O)Nc1cc(F)ccc1F)O2
43. C[C@@H]1CCCCO[C@@H](CN(C)C(=O)NC2CCCCC2)[C@@H](C)CN([C@@H](C)CO)C(=O)c2cc(NC(=O)Nc3ccc(F)cc3)ccc2O1
44. C[C@@H]1CN([C@@H](C)CO)C(=O)c2cc(-c3ccccc3)cnc2O[C@H]1CN(C)C(=O)Cc1ccccc1
45. Cc1ccc(S(=O)(=O)N(C)C[C@H]2OCCCC[C@@H](C)Oc3ccc(NS(C)(=O)=O)cc3C(=O)N([C@H](C)CO)C[C@@H]2C)cc1
46. COc1ccccc1-c1cnc2c(c1)C(=O)N([C@H](C)CO)C[C@@H](C)[C@H](CN(C)Cc1ccccc1)O2
47. C[C@@H]1CN([C@H](C)CO)C(=O)Cc2cc(NC(=O)C3CC3)ccc2O[C@@H]1CN(C)Cc1ccc2c(c1)OCO2
48. O=C(C[C@@H]1CC[C@@H]2NC[C@@H](O)COC[C@H]2O1)NC1Cc2ccccc2C1

Screen / compound no.	41	42	43	44	45	46	47	48
UUG fidelity	-3	26	5	-4	-1	27	-6	-13
HIV Env fusion	8[16.7 µM]	-4[16.7 µM]	-9[16.7 µM]	4[16.7 µM]	-6[16.7 µM]	16[16.7 µM]	5[16.7 µM]	-1[16.7 µM]

Given with tabs: entries from further up
No.	smiles	UUG fidelity	HIV Env fusion
44	C[C@@H]1CN([C@@H](C)CO)C(=O)c2cc(-c3ccccc3)cnc2O[C@H]1CN(C)C(=O)Cc1ccccc1	-4	4[16.7 µM]
43	C[C@@H]1CCCCO[C@@H](CN(C)C(=O)NC2CCCCC2)[C@@H](C)CN([C@@H](C)CO)C(=O)c2cc(NC(=O)Nc3ccc(F)cc3)ccc2O1	5	-9[16.7 µM]
47	C[C@@H]1CN([C@H](C)CO)C(=O)Cc2cc(NC(=O)C3CC3)ccc2O[C@@H]1CN(C)Cc1ccc2c(c1)OCO2	-6	5[16.7 µM]

(list continues)
49. COc1ccccc1NC(=O)N[C@H]1CC[C@H](CC(=O)N[C@H](C)c2ccccc2)O[C@@H]1CO
50. C/C=C/c1cnc2c(c1)C(=O)N([C@H](C)CO)C[C@H](C)[C@H](CN(C)S(=O)(=O)c1ccccc1F)O2
51. CCNC(=O)C[C@H]1CC[C@@H]2[C@H](COc3ccc(NC(=O)c4ccc(C(F)(F)F)cc4)cc3C(=O)N2C)O1
52. C[C@H]1CCCCO[C@@H](CN(C)S(=O)(=O)c2cn(C)cn2)[C@@H](C)CN([C@@H](C)CO)C(=O)c2cc(NS(=O)(=O)c3cn(C)cn3)ccc2O1
53. CCCC#Cc1ccc2c(c1)O[C@@H](CN(C)Cc1cncnc1)[C@@H](C)CN([C@H](C)CO)S2(=O)=O
54. C[C@H]1CN([C@@H](C)CO)C(=O)c2cccc(NC(=O)Nc3ccc4c(c3)OCO4)c2O[C@H]1CN(C)Cc1ccc2c(c1)OCO2
55. C[C@@H]1CN([C@@H](C)CO)C(=O)c2cc(C3=CCCCC3)cnc2O[C@H]1CN(C)C(=O)Cc1ccccc1
56. C[C@@H]1CN([C@@H](C)CO)C(=O)c2cc(NC(=O)CCC(F)(F)F)ccc2O[C@@H](C)CCCCO[C@H]1CN(C)C(=O)Nc1ccc(C(F)(F)F)cc1

Screen / compound no.	49	50	51	52	53	54	55	56
UUG fidelity	0	11	10	-6	2	3	9	-16
HIV Env fusion	-24[16.7 µM]	10[16.7 µM]	4[16.7 µM]	-13[16.7 µM]	23[16.7 µM]	39[16.7 µM]	23[16.7 µM]	8[16.7 µM]

57. N#C[C@H]1[C@H](c2ccc(C#CC3CC3)cc2)[C@H](CO)N1S(=O)(=O)c1ccccc1
58. CC(C)NC(=O)Nc1ccc2c(c1)CC(=O)N([C@@H](C)CO)C[C@@H](C)[C@@H](CN(C)C(=O)Nc1cccc3ccccc13)O2
59. COCCNC(=O)C[C@@H]1C[C@@H]2c3cc(NC(=O)Nc4ccc(OC)cc4)ccc3O[C@@H]2[C@H](CO)O1
60. C[C@@H]1CN([C@@H](C)CO)C(=O)Cc2cc(NS(=O)(=O)c3ccc(Cl)cc3)ccc2O[C@@H]1CN(C)S(=O)(=O)c1cccs1
61. C[C@@H]1CN([C@@H](C)CO)S(=O)(=O)c2ccc(C#Cc3ccc(F)cc3)cc2O[C@H]1CN(C)C(=O)c1ccccn1
62. COc1ccc(NC(=O)N[C@H]2CC[C@@H](CC(=O)NC3CCCCC3)O[C@@H]2CO)cc1
63. C[C@H](CO)N1C[C@H](C)[C@H](CN(C)S(=O)(=O)c2cccs2)Oc2ccc(NC(=O)CCN3CCOCC3)cc2C1=O
64. COc1ccc(S(=O)(=O)Nc2ccc3c(c2)CC(=O)N([C@H](C)CO)C[C@@H](C)[C@H](CN(C)S(=O)(=O)c2ccc(Cl)cc2)O3)cc1
65. CN(C)CCCCCCNC(=O)[C@@H]1C[C@@H]2C(=O)N3CCC[C@H]3C(=O)N2[C@@H]1c1ccc(O)cc1

Screen / compound no.	57	58	59	60	61	62	63	64	65
UUG fidelity	4	2	1	-4	9	11	-16	9	28
HIV Env fusion	4[16.7 µM]	-3[16.7 µM]	-7[16.7 µM]	-9[16.7 µM]	-3[16.7 µM]	10[16.7 µM]	-15[16.7 µM]	2[16.7 µM]	-3[16.7 µM]

Only part of the results is shown. The share of hits here may be higher or lower than overall.
